Sfp inh = inhibitors of Bacillus subtilis Sfp phosphopantetheinyl transferase | Q9F4F7 | Biochemical Sfp PPTase activity, qHTS | AID 1490 | hit rate 3.5% among 310,000 | Potency, µM, for inactives: max response, negative = inhibition, actives largely listed as inhibitors; active = well fitted inhibition curve with a large enough effect; inconclusive = small, poorly fitted or top-dose-only effect, or another doubt; inactive = no such curve, though single readings can be large or run the other way;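 also: the enzyme is Sfp with the accession as filed and its product quenches rhodamine fluorescence; potency is read from the fitted curve at half-maximal effect; 0% = enzyme reaction without inhibitor and -100% = no enzyme wells; top concentration of the series not given in the record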
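Step 1, compound plus 15 nM Sfp-PPTase, 15 min, room temperature. Step 2, add rhodamine-CoA (5 uM) and BHQ-2-YbbR (12.5 uM). Step 3, read 525/598 nm fluorescence at 0 and 30 min.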
Menin MLL FP FL = menin-MLL binding inhibition, fluorescein peptide. FP activity change, % at 61.4 µM. 290,000 tested, under 10 active. Fluorescence polarization, fluorescein-MLL peptide displacement from menin; inconclusive = falling polarisation curve, or a change in total fluorescence; inactive = total fluorescence flat and polarisation flat or rising; no compound was filed as active; the % refers to the polarisation; negative = inhibition;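 also: % of control where 0% means no effect; inhibitors lower the polarisation; unlabelled MLL peptide was the positive control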
TRPML1 blocker = human mucolipin-1 channel inhibition; Q9GZU1; TRPML1-inducible cells, Ca2+ dye fluorescence, FDSS; active compounds read low; inhibition of EC80 agonist-evoked calcium signal; activity change, negative = inhibition, % (no concentration beside the values); hit rate 0.02% among 390,000; AID 624415; in the data active means activity change below about -50%; inconclusive means about -30% to -50%; inactive means above about -30%;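 also: stimulus is agonist 54-4 at its EC80 concentration; % is scaled to controls: 0 for no effect and ±100 for the full control effect; compound concentration not given in the record; the text of the record puts the active cut at -80%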
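Calcium fluorescence in TRPML1-DL cells induced overnight with Tet: a 110 s read after compound pin addition, then a 110 s antagonist read after challenge with 54-4 at 4 uM final (EC80).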
gsp antag = antagonists of gsp mutant (McCune-Albright syndrome). gsp-mutant cells, cAMP HTRF, 30 min; control for the full effect not named in the record. Potency, µM (titrated, usually from 76.9 µM), inactives show at the highest dose activity change, negative = inhibition, most hits filed as inhibitors. hit rate 0.4% among 340,000. AID 624288; active = falling curve of any shape with a large fitted effect; inconclusive = falling curve, mostly with a smaller effect; inactive = flat or rising curve; cell line not stated here;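 also: intracellular cAMP measured with PDE inhibitor Ro 20-1724 present during compound exposure; potency is read from the fitted curve at half-maximal effect; % is scaled to controls: 0 for no effect and ±100 for the full control effect; nearly all actives have a fitted effect of over 65% in size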
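HTRF cAMP read-out (cAMP-d2 plus anti-cAMP antibody-K in lysis buffer, 30 min RT). Before lysis, cells are exposed to compounds with […] for 30 min at 37C in DPBS containing Ca/Mg, BSA and Tween 20.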
gsp ag = activates gsp, the McCune-Albright syndrome mutation | hit rate 0.13% among 340,000 | Potency, µM (doses to about 76.9 µM), for the others: top-dose activation (cAMP increase), most hits filed as activators | gsp mutant cells, cAMP HTRF, 30 min; control for the full effect not named in the record; active = well fitted activation curve with a large enough effect; inconclusive = small, poorly fitted or top-dose-only effect, or another doubt; inactive = no such curve, though single readings can be large or run the other way; cell line not stated here;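 also: phosphodiesterase inhibitor Ro 20-1724 added with compounds to block cAMP breakdown; potency is read from the fitted curve at half-maximal effect; nearly all actives have a fitted effect of over 60% in size; about a fifth of the inactives were tested at one dose only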
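Cells stably selected in G418 were plated at 2000/well, grown 16-24 hr, then given compounds in DMSO with the PDE inhibitor […] (300 uM solution added) for 30 min at 37C; cAMP was read by HTRF.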
ClpP mod = qHTS Assay for Activators of ClpP; Potency, µM (top dose mostly 57.5 µM), without a hit: at the top dose activity change, negative = active; hit rate 1.9% among 340,000; ATP-dependent Clp protease proteolytic subunit (Bacillus subtilis (strain 168)), P80244; purified B. subtilis ClpP, FRET peptide cleavage, 20 min; active = well fitted falling curve with a large enough effect; inconclusive = small, poorly fitted or top-dose-only effect; inactive = no such curve, though single readings can be large or run the other way; also: potency is read from the fitted curve at half-maximal effect; the source files actives as falling curves though it sought activators and does not explain the sign; nearly all actives have a fitted effect of over 65% in size; many hits overshoot -100%
Target sequence (P80244 whole entry, looked up): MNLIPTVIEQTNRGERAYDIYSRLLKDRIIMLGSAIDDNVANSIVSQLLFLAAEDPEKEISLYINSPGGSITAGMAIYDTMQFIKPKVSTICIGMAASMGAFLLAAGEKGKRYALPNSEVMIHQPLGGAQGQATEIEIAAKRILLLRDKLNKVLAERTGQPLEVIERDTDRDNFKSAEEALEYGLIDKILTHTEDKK
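FRET quenching reversal measured ClpP activation: 10 microg/mL B. subtilis ClpP at pH 8 with the FRET-FV decapeptide, read at 430 nm after 320 nm excitation. The 20-min minus 0-min signal was scaled between DMSO/no-enzyme wells and ADEP (5.8 microM final).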
TRPV1 PAM = human TRPV1 potentiation. Q8NER1. TRPV1-expressing cells, Fluo-8 calcium influx, capsaicin EC20 potentiation; host cell line not named in the record; control for the full effect not named in the record. potentiation, % at 8.33 µM. hit rate 0.02% among 320,000. AID 540277; active means potentiation above 80%; inconclusive means 30% to 80%; inactive means below 30%; also: 0% is about no effect
Target sequence (Q8NER1 whole entry, looked up): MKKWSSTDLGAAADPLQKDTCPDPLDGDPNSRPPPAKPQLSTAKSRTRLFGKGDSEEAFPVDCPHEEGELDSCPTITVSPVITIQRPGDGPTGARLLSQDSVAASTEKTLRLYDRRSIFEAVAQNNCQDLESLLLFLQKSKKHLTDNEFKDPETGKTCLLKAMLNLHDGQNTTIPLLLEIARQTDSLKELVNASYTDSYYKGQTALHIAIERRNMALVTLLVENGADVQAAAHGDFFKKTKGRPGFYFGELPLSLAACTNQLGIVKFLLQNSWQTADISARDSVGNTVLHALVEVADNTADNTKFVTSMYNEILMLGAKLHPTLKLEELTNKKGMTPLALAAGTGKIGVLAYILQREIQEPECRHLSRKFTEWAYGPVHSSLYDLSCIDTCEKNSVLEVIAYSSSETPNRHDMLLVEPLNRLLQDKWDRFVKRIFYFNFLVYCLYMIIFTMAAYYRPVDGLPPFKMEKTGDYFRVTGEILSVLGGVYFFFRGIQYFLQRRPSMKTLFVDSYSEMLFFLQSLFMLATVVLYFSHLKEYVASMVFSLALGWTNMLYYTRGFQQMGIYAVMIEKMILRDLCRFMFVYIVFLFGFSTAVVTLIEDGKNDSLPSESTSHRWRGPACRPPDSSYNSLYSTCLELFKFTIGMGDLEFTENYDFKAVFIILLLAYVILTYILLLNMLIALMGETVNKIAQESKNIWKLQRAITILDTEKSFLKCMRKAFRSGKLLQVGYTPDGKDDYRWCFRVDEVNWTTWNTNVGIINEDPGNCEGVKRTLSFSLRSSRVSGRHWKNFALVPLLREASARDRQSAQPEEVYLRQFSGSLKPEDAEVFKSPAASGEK
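TRPV1-expressing cells were cultured overnight at 35.5C and loaded with Fluo-8 calcium dye for 40 to 90 min at room temperature. After a 10 s baseline, compound was added and calcium influx was read kinetically for 3 min (ex 480/em 520 nm).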
* = called active by the depositor; & = joins results of further samples; [ ] = dose if it differs, or a comment.

What do the screens show for `COc1ccccc1Nc1nnc(SCC(=O)NC2CC2)s1`?
TRPML1 blocker: 7; gsp antag: -3%; gsp ag: 19%; ClpP mod: 0.5%; TRPV1 PAM: -2

What do the screens show for `Cc1ccc(NC(=O)c2ccc(S(=O)(=O)NCc3ccco3)cc2)cc1`?
Sfp inh: 1%; Menin MLL FP FL: 0.0; TRPML1 blocker: -6; gsp antag: 5%; gsp ag: -3%; TRPV1 PAM: 1

How did Cc1ccc(C)c(-n2c(SCC(=O)Nc3nnc(C)s3)nnc2-c2ccoc2C)c1 do in these assays?
Sfp inh: 9%; Menin MLL FP FL: -1.1; TRPML1 blocker: inconclusive; gsp antag: 2%; gsp ag: -31%[inhibitor]; ClpP mod: 0.6%; TRPV1 PAM: 10

How did CCOC(=O)CSc1nc2c(sc(=S)n2-c2ccccc2)c(=O)[nH]1 do in these assays?
Sfp inh: -5%; Menin MLL FP FL: 2.0; TRPML1 blocker: -9; gsp antag: -13%; gsp ag: -12%; ClpP mod: 1.4%; TRPV1 PAM: 4

What do the screens show for `O=C(NCCc1ccco1)c1cc(COc2cccc(C(F)(F)F)c2)on1`?
Sfp inh: 7%; TRPML1 blocker: 15; gsp antag: -6%; gsp ag: inconclusive; ClpP mod: 0.0%; TRPV1 PAM: -7

How did CCC(C)[C@H](NC(=O)NCc1cccc(OC)c1)C(=O)O (stereo partly drawn) do in these assays?
Sfp inh: 2%; Menin MLL FP FL: -0.9; TRPML1 blocker: -12; gsp antag: 9%; gsp ag: 4%; ClpP mod: -1.2%; TRPV1 PAM: -3

How did Cc1noc(C)c1NC(=O)Nc1cccc2c1O[C@@H](CN(C)C)[C@@H](C)CN([C@H](C)CO)C2=O do in these assays?
TRPML1 blocker: 26; gsp antag: 8%; ClpP mod: -5.8%

What do the screens show for `O=C(CN1C(=O)CSc2ccc(S(=O)(=O)N3CCCCC3)cc21)NCc1cccnc1`?
Sfp inh: -11%; Menin MLL FP FL: 3.1; TRPML1 blocker: 12; gsp antag: 2%; gsp ag: -35%; ClpP mod: -0.2%; TRPV1 PAM: -4

What do the screens show for `CCN1C[C@@H]2[C@@H]3C(=O)N(Cc4ccccc4)C(=O)[C@@H]3[C@](C)(C1=O)N2C(=O)c1ccc(Cl)cc1`?
TRPML1 blocker: -11; gsp antag: 1%; gsp ag: 10%; ClpP mod: 0.1%

Results for CN(C)c1ccc(P(=O)(OCc2ccccc2)C(O)c2ccccc2)cc1 (stereo not drawn) ?
Sfp inh: 15%; Menin MLL FP FL: 7.4; TRPML1 blocker: 34; gsp antag: -8%; gsp ag: 3%[15.4 µM]

How did CCOc1nc(Nc2ccccc2)nc(OCC)n1 do in these assays?
Sfp inh: -8%; Menin MLL FP FL: -4.4; TRPML1 blocker: 20; gsp antag: 6%; gsp ag: -14%; ClpP mod: -3.4%; TRPV1 PAM: -25

What do the screens show for `C=C(C)COc1ccc(-c2n[nH]c(C)c2-c2ccccc2)c(O)c1`?
Sfp inh: 26%; Menin MLL FP FL: 0.7; TRPML1 blocker: -9; gsp antag: -17%; gsp ag: 18%; ClpP mod: -5.2%; TRPV1 PAM: 4

How did CCOC(=O)c1cnc(SCC(=O)Nc2nnc(CC)s2)nc1N do in these assays?
Sfp inh: 10%; Menin MLL FP FL: -2.7; TRPML1 blocker: 20; gsp antag: 9%; gsp ag: -1%; ClpP mod: 0.6%; TRPV1 PAM: 20

What do the screens show for `Fc1cccc(C2CCCCN2Cc2nc(C3CC3)no2)c1` (stereo not drawn)?
Sfp inh: 19%; Menin MLL FP FL: 1.1; TRPML1 blocker: 24; gsp antag: -5%; gsp ag: inconclusive; TRPV1 PAM: 18

Results for CC1CC(C)CN(C(=O)CSc2nnc(-c3ccco3)o2)C1 (stereo not drawn) ?
Sfp inh: 2%; Menin MLL FP FL: 1.1; TRPML1 blocker: 16; gsp antag: -4%; gsp ag: 3%[15.4 µM]; TRPV1 PAM: -12

Results for Cc1ccc(OCC(=O)Nc2ccc(S(=O)(=O)Nc3ccccn3)cc2)cc1C ?
Sfp inh: -5%; Menin MLL FP FL: -4.9; TRPML1 blocker: -3; gsp antag: 12%; gsp ag: -15%[15.4 µM]; TRPV1 PAM: 14

How did O=C(Cc1cc(=O)[nH][nH]1)N/N=C/c1c(Cl)cccc1Cl do in these assays?
Sfp inh: 50µM*; Menin MLL FP FL: 11&5.8; TRPML1 blocker: -10&8; gsp antag: 9%&6%; gsp ag: inconclusive; ClpP mod: -1.2%&-3.0%; TRPV1 PAM: -6&5

What do the screens show for `Cc1ccc(S(=O)(=O)NC2=NCN(CCOC(=O)c3ccc([N+](=O)[O-])cc3)CN2)cc1`?
Sfp inh: 3%; Menin MLL FP FL: 4.3; TRPML1 blocker: -7; gsp antag: -1%; gsp ag: -10%; ClpP mod: -0.8%; TRPV1 PAM: -1

How did O=C(Nc1ccccc1O)c1ccc(NC(=O)C2CC2)cc1 do in these assays?
Sfp inh: 2%; Menin MLL FP FL: 7.3; TRPML1 blocker: 33; gsp antag: -5%; gsp ag: 13%; ClpP mod: -0.3%; TRPV1 PAM: 4

How did CCOC(=O)C1CCCN(C2CC(=O)N(c3ccc(C(C)C)cc3)C2=O)C1 (stereo not drawn) do in these assays?
Sfp inh: -1%; Menin MLL FP FL: 0.2; TRPML1 blocker: -3; gsp antag: 7%; gsp ag: -60%[inhibitor]; ClpP mod: -0.3%; TRPV1 PAM: -8

Results for O=C(N/N=C/c1cccc(OC(=O)c2cccc(Br)c2)c1)c1cccnc1 ?
Sfp inh: 12%; TRPML1 blocker: 6; gsp antag: -22%; gsp ag: -7%; ClpP mod: -9.7%; TRPV1 PAM: -4

Results for CCOC(=O)c1ccccc1CN1C(=O)c2ccccc2S1(=O)=O ?
Sfp inh: -2%; Menin MLL FP FL: -6.2; TRPML1 blocker: -3; gsp antag: -3%; gsp ag: 20%[15.4 µM]; ClpP mod: -1.0%; TRPV1 PAM: -2

How did Cc1ccccc1CSc1nnc(-c2ccccn2)n1N do in these assays?
Sfp inh: -3%; Menin MLL FP FL: 1.1; TRPML1 blocker: 8; gsp antag: -2%; gsp ag: -32%; ClpP mod: -2.9%; TRPV1 PAM: -5

What do the screens show for `Cc1ccc2c(c1)C(=O)c1ccccc1CS2=O` (stereo not drawn)?
Sfp inh: inconclusive; Menin MLL FP FL: -2.0; TRPML1 blocker: -5; gsp antag: 3%; gsp ag: 17%; ClpP mod: -0.6%; TRPV1 PAM: -10

Results for CO/N=C(/C(=O)N[C@@H]1C(=O)N2C(C(=O)O)=CCS[C@H]12)c1cnc(N)s1 ?
Sfp inh: 79µM*; Menin MLL FP FL: -1.6; TRPV1 PAM: -8

Results for CC(=O)c1c(C)[nH]c(C(=O)OCC(=O)N(C)C)c1C ?
Sfp inh: 12%; Menin MLL FP FL: 7.7; TRPML1 blocker: -1; gsp antag: 3%; gsp ag: -10%; ClpP mod: -11%; TRPV1 PAM: 8

Results for Clc1ccc2oc(SCc3cccnc3)nc2c1 ?
Sfp inh: 6%; Menin MLL FP FL: -0.4; TRPML1 blocker: 32; gsp antag: -2%; gsp ag: inconclusive; ClpP mod: -3.8%; TRPV1 PAM: -20

How did COc1ccccc1NS(=O)(=O)c1cc(NC(=O)c2cc(=O)[nH]c3ccccc23)ccc1N1CCOCC1 do in these assays?
Sfp inh: -12%; Menin MLL FP FL: 4.7; TRPML1 blocker: -24; gsp antag: -15%; gsp ag: -24%; ClpP mod: -3.1%; TRPV1 PAM: -6

Results for COc1cccc(C(=O)NC2CCN(CC(=O)NCc3ccccc3OC)CC2)c1 ?
Sfp inh: 5%; Menin MLL FP FL: -0.5; TRPML1 blocker: 9; gsp antag: -4%; gsp ag: 9%; ClpP mod: -0.5%; TRPV1 PAM: 17

How did CCOc1ccc(C(=O)NNC(=O)CN2C(=O)NC3(CCCC3)C2=O)cc1 do in these assays?
TRPML1 blocker: 41; gsp antag: 10%; gsp ag: -5%; ClpP mod: -1.1%; TRPV1 PAM: -13

What do the screens show for `Cc1ccc(C(NC(=O)c2ccccc2S(C)(=O)=O)c2ccccc2)cc1` (stereo not drawn)?
Sfp inh: 0%; Menin MLL FP FL: 7.5; TRPML1 blocker: -7; gsp antag: 5%; gsp ag: inconclusive; TRPV1 PAM: -1

How did Cc1cc(C)cc(NC(=O)CSc2nnc(-c3ccccc3Br)o2)c1 do in these assays?
Sfp inh: 16%; Menin MLL FP FL: -1.8; TRPML1 blocker: 46; gsp antag: -8%; gsp ag: inconclusive; ClpP mod: -1.0%; TRPV1 PAM: -8

How did C=CCNC(=O)/C(=C\c1cccc([N+](=O)[O-])c1)NC(=O)c1ccccc1 do in these assays?
Sfp inh: -12%; Menin MLL FP FL: 0.0; TRPML1 blocker: 9; gsp antag: 9%; gsp ag: 8%; ClpP mod: -21%; TRPV1 PAM: inconclusive

Results for COc1cc(N2N=C(c3ccccc3)CC2c2ccccc2)c(C=O)cc1C=O (stereo not drawn) ?
Sfp inh: 11%; Menin MLL FP FL: 22; TRPML1 blocker: 53; gsp antag: -7%; gsp ag: -6%[15.4 µM]; ClpP mod: 0.0%; TRPV1 PAM: 10

Quoted at random: 3 records from the list, in no set order.
How did C=CCNC(=O)/C(=C\c1cccc([N+](=O)[O-])c1)NC(=O)c1ccccc1 do in these assays?
Sfp inh: -12%; Menin MLL FP FL: 0.0; TRPML1 blocker: 9; gsp antag: 9%; gsp ag: 8%; ClpP mod: -21%; TRPV1 PAM: inconclusive

Results for CCOC(=O)c1ccccc1CN1C(=O)c2ccccc2S1(=O)=O ?
Sfp inh: -2%; Menin MLL FP FL: -6.2; TRPML1 blocker: -3; gsp antag: -3%; gsp ag: 20%[15.4 µM]; ClpP mod: -1.0%; TRPV1 PAM: -2

How did CCOC(=O)c1cnc(SCC(=O)Nc2nnc(CC)s2)nc1N do in these assays?
Sfp inh: 10%; Menin MLL FP FL: -2.7; TRPML1 blocker: 20; gsp antag: 9%; gsp ag: -1%; ClpP mod: 0.6%; TRPV1 PAM: 20

Assay outcomes: PubChem BioAssay, National Center for Advancing Translational Sciences (NCATS)
